NPYLR7 ag: activates Aedes aegypti NPYLR7 receptor; HEK293T NPYLR7/Galpha15, GCaMP6s calcium fluorescence; actives 0.15% (n = 270,000); activation, % at 10 µM; in the data active = activation above about 40%;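 note: 0% = vehicle and 100% = reference agonist at the receptor; some compounds past the cut are filed as inactive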
NPYLR7 ag max-min: also measured in NPYLR7 ag; calls as there; activation, %; measured here: Max-Min RFU normalised activation; some inactives read as strong as hits;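 span of the calcium signal over five minutes; 0% = vehicle and 100% = native peptide agonist; compound fluorescence can raise it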
Numbers without * were called inactive; & = joins results of further samples. This is a subset; count on the stated rates, not on these rows.

SMILES	NPYLR7 ag	NPYLR7 ag max-min
O=C(CSc1nc(-c2ccccc2)cc(=O)[nH]1)Nc1oncc1-c1ccccc1	0	-3
CCn1cc(S(=O)(=O)Nc2ccc(N(C)C(C)=O)cc2)cn1	-9	-15
O=C(CCN1CCN(C(=O)C2CCCO2)CC1)Nc1nnc(C2CC2)s1 (centres undefined)	10	16
O=C1OC(/C=C\c2cccc([N+](=O)[O-])c2)=NC/1=C/c1ccc(Cl)c(Cl)c1	-13	-16
Cn1c(=O)c2sc3c(c2n(CCN2CCCCC2)c1=O)COC(C)(C)C3	4	-2
Cc1ccc(CSc2nc(C)cc(Oc3cccc(C)c3)n2)cc1	2	8
O=C(Cn1nc2n(c1=O)CCCCC2)Nc1nncs1	19	13
COCCN(CC(=O)N(Cc1ccc2c(c1)OCO2)Cc1ccco1)C(=O)Nc1cccc(OC)c1	4	3
COC(=O)c1sc(N2C(=O)C(O)=C(C(=O)c3cccs3)C2c2cccc(OC)c2)nc1C (centres undefined)	0	0
O=C(c1cc(-c2ccccc2F)nn1-c1ccccc1Cl)N1CCN(Cc2ccc3c(c2)OCO3)CC1	-3	8
CCN1CCN(C(=O)c2ccc(CSc3nnc(-c4ccncc4)n3-c3ccc(F)cc3)cc2)CC1	6	13
COc1ccccc1CC1(C)C(=O)Nc2ccc(Cl)cc21 (centres undefined)	-2	5
Cc1cc(NC(=O)N2CCCN(C(=O)CC3CCCC3)CC2)on1	0	-1
CCc1nc2ccc(C(=O)N3CCN(C(C)=O)CC3)cn2c1N(C)C(=O)c1cccc(OC)c1	18	20
O=C(Nc1cccc(OC(F)(F)C(F)F)c1)c1sc2cc(F)ccc2c1Cl	5	11
O=C(O)Cn1c(=O)oc2ccccc21	5	1
O=C(NOCC1CC1)c1ccc(F)c(F)c1Nc1ccc(I)cc1Cl	-12	-19
O=C(Nc1cccc(CSC2CCOCC2)c1)N1CCCCCC1	5	3
CC(=O)c1ccc(S(=O)(=O)N2CCN(C(=O)c3cnccn3)CC2)cc1	15	5
CCc1nccn1-c1cc(C)nc2c(-c3ccc(Cl)cc3)cnn12	3	6
CCOc1ccc(S(=O)(=O)c2cnc(SCC(=O)Nc3ccc(C)cc3)[nH]c2=O)cc1	-3	-7
CCOC(=O)c1ccc2c(c1)nc(SCc1c(F)c(F)c(C(F)(F)F)c(F)c1F)n2Cc1ccccn1	3	0
O=C(N/N=C(/c1ccccc1)c1ccncc1)NC(=O)c1c(F)cccc1F	5	7
CCOC(=O)c1cccnc1-c1ccc(-c2ccn[nH]2)cc1	1	-5
CCc1nc2ccc(C(=O)NCCN3CCNC3=O)cn2c1N(CCC(C)C)CCN(C)C	9	-4

Whole records from above. Order of screens: NPYLR7 ag	NPYLR7 ag max-min
O=C(O)Cn1c(=O)oc2ccccc21 is listed with 5	1
CCc1nc2ccc(C(=O)N3CCN(C(C)=O)CC3)cn2c1N(C)C(=O)c1cccc(OC)c1 is listed with 18	20
CCOC(=O)c1ccc2c(c1)nc(SCc1c(F)c(F)c(C(F)(F)F)c(F)c1F)n2Cc1ccccn1 is listed with 3	0
O=C1OC(/C=C\c2cccc([N+](=O)[O-])c2)=NC/1=C/c1ccc(Cl)c(Cl)c1 is listed with -13	-16

Reprinted at random: 7 records from the list.
SMILES	NPYLR7 ag	NPYLR7 ag max-min
O=C(c1cc(-c2ccccc2F)nn1-c1ccccc1Cl)N1CCN(Cc2ccc3c(c2)OCO3)CC1	-3	8
Cc1cc(NC(=O)N2CCCN(C(=O)CC3CCCC3)CC2)on1	0	-1
O=C(CSc1nc(-c2ccccc2)cc(=O)[nH]1)Nc1oncc1-c1ccccc1	0	-3
CCc1nccn1-c1cc(C)nc2c(-c3ccc(Cl)cc3)cnn12	3	6
CCOC(=O)c1cccnc1-c1ccc(-c2ccn[nH]2)cc1	1	-5
Cc1ccc(CSc2nc(C)cc(Oc3cccc(C)c3)n2)cc1	2	8
CCn1cc(S(=O)(=O)Nc2ccc(N(C)C(C)=O)cc2)cn1	-9	-15

Other entries follow.
SMILES	NPYLR7 ag	NPYLR7 ag max-min
CC1(C)CC(=O)C2=C(C1)OC(N)=C(C#N)C21CCCC1	-2&20	-3&18
O=C(NCc1ccco1)c1ccc(-c2cccc(Cl)c2)s1	29	38
c1csc(CN=C2SCC3CCCCN23)c1 (centres undefined)	-1	-10
CN(CC(=O)C(C#N)c1ccccc1)C1CCCCC1 (centres undefined)	-1	17
CC(C)(C)NC(=O)NC(=O)COC(=O)C1CC2CCCC(C1)C2=O (centres undefined)	2	1
COc1cccc(Cn2cccc2CN(Cc2ccccc2)C(=O)CN(CC(C)C)C(=O)Nc2cccc(OC)c2)c1	0	12
CN(C)C(=O)Nc1cccc(-c2ccc(N(C)C)cc2)c1	-3	-9
O=C(Cc1cccs1)Nc1cccc(-c2nc3cccnc3s2)c1	1	0
Cc1cc(Br)ccc1NC(=O)Cn1c2ccccc2c(=O)c2ccccc21	-2	-9
Cc1cc(C(=O)Nc2cc(C#N)cn2C(C)(C)C)nn1C(C)(C)C	-2	-2
Cc1cc(C(=O)N2CCOC(Cc3ccccc3)C2)cc(Cl)n1 (centres undefined)	32	35
Cn1nnnc1SCC(=O)c1ccccc1Cl	3	0
COCc1cc(N2CCOc3c(O)cc(-c4ccc(C)s4)cc3C2)ncn1	2	1
CC(=O)N1CN(CCC(C)C)Cc2c1sc1c2CCCC1	-3	30
CSc1ccc2cc(CN(C)CCc3cn[nH]c3)c(=O)[nH]c2c1	11	8
O=C(CCC1CCCN(C(=O)C(=O)c2ccccc2)C1)Nc1ccc(C(F)(F)F)cc1 (centres undefined)	0	-1
CC(=O)CC(C)(C)S(=O)(=O)c1ccc(Oc2ccc(S(=O)(=O)C(C)(C)CC(C)=O)cc2)cc1	10	6
COc1cccc(CSc2nnc(CNC(=O)Nc3ccc(SC)cc3)n2-c2cc(Cl)ccc2Cl)c1	18	24
Cn1c(NC(=O)Cc2cccc3ccccc23)cc(=O)n(C)c1=O	2	5
CC(C)(C)CC(=O)Nc1cccc(S(=O)(=O)C2CCCC2)c1	10	5
O=C1CC(=NN2C(=O)CC(c3ccc(O)cc3)C3=C2CCCC3=O)C(c2ccccc2)=NN1 (centres undefined)	-2	-6
CCOC(=O)c1c(NC(=O)c2ccc(Cl)c(Cl)c2)sc(C(=O)Nc2ccccc2)c1C	5	-4
C=CCn1c(SCc2ccc(Cl)cc2Cl)nnc1-c1ccccc1F	-9	-8
CC1(Cc2cccc(C#N)c2)C(=O)Nc2ccc(OC(F)(F)F)cc21 (centres undefined)	6	3
CCOC(=O)c1c(CC(C)C)csc1NC=C(C#N)C#N	9	9

Next section
SMILES	NPYLR7 ag	NPYLR7 ag max-min
O=C(CSc1ccccn1)NC1CC(=O)N(C2Cc3ccccc3C2)C1 (centres undefined)	10	10
CCN(Cc1ccccc1)C(=O)C1OC(Cc2ccccc2)=NN1C(C)=O (centres undefined)	9	1
CC(=O)c1nnn(-c2nc(N3CCOCC3)nc(N3CCOCC3)n2)c1C	1	2
COC(=O)C(O)=CC(C)=O	0	-1
NC(=O)[C@H](Cc1c[nH]c2ccccc12)NC(=O)c1ccc(-n2nc(-c3ccc(Cl)c(Cl)c3)cc2N)cc1	17	8
CCN(C(=O)CN1CCN(c2ccc([N+](=O)[O-])c3cnccc23)CC1)c1ccccc1	0	2
CC(=O)O[C@]1(C(C)=O)CC[C@H]2[C@@H]3C=C(C)C4=CC(=O)CC[C@]4(C)[C@H]3CC[C@@]21C	-11&-2	-14&-6
N=c1sccn1CC(=O)NCc1cccs1	2	25
COc1ccccc1N1CCN(C(=O)c2ccc(N(C)S(=O)(=O)c3ccccc3)cc2)CC1	11	7
CNC(=O)CN=Cc1c(O)n(CCOC)c(=S)[nH]c1=O	-9	-10
CCOC(=O)c1nn(-c2ccc(F)cc2)c(=O)cc1NCCCN(C)C	5	1
O=c1[nH]c(CNc2ccccc2)nc2sc3c(c12)CCN(Cc1ccccc1)C3	1	7
Cc1c(CS(C)(=O)=O)cccc1NC(=O)CCc1ccco1	-6	-6
CC1=C(C(=O)Nc2cccc(CS(C)=O)c2)Cc2ccccc2O1 (centres undefined)	9	4
Clc1ccc2oc(CN3CCCC3c3ccccn3)nc2c1 (centres undefined)	7	-4
CS(=O)c1nncn1-c1nccc(Oc2ccc(F)cc2)n1 (centres undefined)	-13	-13
Cc1c(CC(=O)N(C)Cc2nccs2)c2c(n1CC(C)C)CC(C)(C)CC2=O	11	-4
CC(CCc1ccccc1)NC(=O)CSc1nc(Cl)cc(N2CCN(C(=O)c3ccc(F)cc3)C(C)C2)n1 (centres undefined)	-2	7
COc1ccc(OC)c(-c2cnc(-c3ccc(CNC(=O)c4cc(C)nn4C(C)(C)C)cc3)[nH]2)c1	-2	-13
CCN(CC(=O)NCc1ccc(F)cc1)C(=O)c1cc(F)cc(F)c1	-10	-13
CCC(CC)n1nc(C)cc1NC(=O)CCn1nnnc1C	10	6
N#CCCn1cc(C(=O)CN2CCOCC2)c2ccccc21	10	5
Cc1nc(NCCc2nc3c(s2)CCC3)c2cnn(C)c2n1	3	18
COc1cccc(-c2cc(C(=O)N3CCN(c4ccccc4F)CC3)n3nc(-c4ccccc4)cc3n2)c1	14	11
O=C(Cc1ccccc1)Nc1nnc(Cc2ccc(F)cc2)s1	-1	0

(listing goes on)
SMILES	NPYLR7 ag	NPYLR7 ag max-min
CNC(=S)N(Cc1ccco1)C1CC(=O)N(c2ccc(OC)cc2)C1=O (centres undefined)	3	3
COc1ccc(CN(CCc2c[nH]c3ccccc23)C(=O)CN(C(=O)c2ccc(Br)cc2)C(C)C)cc1OC	13	4
CCCS(=O)(=O)N1CCC(c2nc(-c3ccccc3)no2)CC1	8	5
C[C@@]1(O)CCN(C(=O)CN2CCCCCC2=O)C[C@@H]1Cc1ccccc1	7	4
CC(C)n1nnnc1SCC(=O)N(C)C1CCS(=O)(=O)C1 (centres undefined)	1	1
CC1CCCCC1N(C)C(=O)c1ccc(S(=O)(=O)N2CCCC2)o1 (centres undefined)	1	-3
CCCn1nccc1C(=O)NC1CC(=O)N(Cc2cccc(F)c2)C1 (centres undefined)	-1	-5
O=S(=O)(c1ccc2nsnc2c1)N1[C@H]2CCNC[C@@H]1CC2	6	4
NC(=O)c1cccc(NC(=O)C2CCCc3ccccc32)n1 (centres undefined)	-4	-5
CC(=O)Nc1ccc(-c2nccn2CCc2nc(C)cc(C(F)(F)F)n2)cc1	5	2
CCCCOCCCNC(=O)c1c(C)noc1-c1ccc(OC(F)(F)F)cc1	3	0
CN1CCN(CCCCCCC(=O)O)CC1	4	4
COc1ccccc1C=CC(=O)c1ccc(C#N)cc1	1	-2
CC(=O)N1CCN(c2ccccc2CNCc2ccsc2)CC1	4	4
O=C(C1CCOCC1)N1CCOC(Cc2ccccc2)C1 (centres undefined)	3	1
Cc1cc(C)n(C2CCN(C(=O)c3cccc(C(C)C#N)c3)CC2)n1 (centres undefined)	17	4
CC(C)(C)OC(=O)COc1ccc2c(c1)O/C(=C\C1=Cc3ccccc3OC1)C2=O	-5	-8
Cc1ccc(NC(=O)Cn2nc3c(cc2=O)CCCC3)cc1C	-18	-20
CCC(CC)(C(=O)NNC(=O)c1ccccc1Br)c1ccccc1	-4	-5
COc1ccc(S(=O)(=O)N2CCC3(CC2)NC(=O)c2cc(Cl)ccc2N3)cc1	1	7
Clc1ccc(Cl)c2sc(N3CCCCC3)nc12	6	2
COc1ccccc1N1CCN(CC(O)c2ccccc2)CC1 (centres undefined)	10	2
CCNc1nc(-c2ccccc2)ncc1C(=O)OCC	-2	-1
CC(CC(=O)c1cccc(Br)c1)C(=O)Nc1nn[nH]n1 (centres undefined)	2	-7
CSC1=N/C(=C\c2ccc3c(c2)OCO3)C(=O)S1	2	1

New compounds follow
SMILES	NPYLR7 ag	NPYLR7 ag max-min
O=C(NC1CC1c1ccccc1)c1c[nH]c(=O)c(Br)c1 (centres undefined)	7	-8
O=C(NCCc1csc2nc(-c3cccs3)nn12)c1ccc(C(F)(F)F)cc1	-1	-2
COC(=O)C1=NNC2C(=O)N(c3ccc(F)cc3)C(=O)C12 (centres undefined)	-5	-7
CC(=O)C1=C(C)OC2(O)c3ccccc3C(=O)C12O (centres undefined)	0	-1
O=C(C=Cc1ccc(-c2ccc([N+](=O)[O-])cc2)o1)c1ccccc1	0	-3
CC(C)NC(=O)Nc1ccc(CNC(=O)/C(=C/c2ccccc2)c2ccccc2)cc1	-5	-15
O=C1c2ccccc2CCc2cc(Cl)sc21	-5	-9
CCOC(=O)c1c(C)nn(-c2ccc(C(=O)Nc3ccc(C)cc3)cc2)c1C	9	-1
COc1cccc(CNC(=O)C2CCN(C(=O)[C@H](Cc3ccccc3)NC(=O)Nc3cccc(Cl)c3Cl)CC2)c1	38	35
Cc1ccc(C)c(CCNC(=O)CC2C(=O)NCCN2C(C)C)c1 (centres undefined)	7	3
COc1ccc(CC(=O)N2CCC(n3cnc4cc(C(F)(F)F)ccc43)CC2)cc1C	-4	-5
CCOC(=O)c1noc(NC(=O)c2ccc(C(F)(F)F)cc2)c1-c1ccccc1	-1	-5
Cc1nn(CCNC(=O)c2noc(C)c2CO)c(C)c1Cl	-7	-11
Cc1ccc(S(=O)(=O)/C(C#N)=C/N2CCC(C(N)=O)CC2)cc1C	-3	-4
Cc1ccc(N2CC[C@@](C)(O)[C@@H](Cc3ccccc3)C2)nn1	1	-2
Cc1c(Cl)cccc1NC(=O)CCNCc1cn(C)nc1C(C)C	-19	-19
COCCn1c(=O)c(C#N)cc2c(=O)n3ccccc3nc21	4	2
COc1ccc(-n2nnn(CN3CC(C)OC(C)C3)c2=S)cc1 (centres undefined)	7&4	5&1
c1ccc(-c2noc3c2CN(Cc2noc(C4CCCO4)n2)CC3)cc1 (centres undefined)	15	9
COc1cc(C2c3[nH]c4ccccc4c3CCN2Cc2cc3c(cc2Cl)OCO3)ccc1Br (centres undefined)	-12	-16
CC1=CSC2=NC(=O)/C(=C/c3ccc(OS(=O)(=O)c4ccccc4)c(Cl)c3)C(=N)N12	-2	-2
CCc1nnc(NC(=O)c2ccc3c(=O)n4c(nc3c2)CCCCCC4)s1	5	2

Single values from the entries so far:
Result of `Cc1c(CC(=O)N(C)Cc2nccs2)c2c(n1CC(C)C)CC(C)(C)CC2=O` under NPYLR7 ag: 11
Result of `CC(=O)C1=C(C)OC2(O)c3ccccc3C(=O)C12O` (centres undefined) under NPYLR7 ag: 0
